Source: PubChem (ICCB-Longwood Screening Facility, Harvard Medical School)
MbtI inh = MbtI salicylate synthase inhibitors, primary screen, biochemical, fluorescence intensity; purified MbtI enzyme, fluorescence intensity read-out; inhibition, %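 (about 17 µg/mL by stock and volumes)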; 0.89% of 100,000 active;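 active means above 50% in both replicates, above 80% if mildly self-fluorescent; inactive means the rest, strongly fluorescent compounds included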;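 further: 0% = mean of negative and 100% = mean of positive controls; one replicate is shown; some compounds called inactive have numbers as strong as hits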
Target sequence (P9WFX0 whole entry, looked up): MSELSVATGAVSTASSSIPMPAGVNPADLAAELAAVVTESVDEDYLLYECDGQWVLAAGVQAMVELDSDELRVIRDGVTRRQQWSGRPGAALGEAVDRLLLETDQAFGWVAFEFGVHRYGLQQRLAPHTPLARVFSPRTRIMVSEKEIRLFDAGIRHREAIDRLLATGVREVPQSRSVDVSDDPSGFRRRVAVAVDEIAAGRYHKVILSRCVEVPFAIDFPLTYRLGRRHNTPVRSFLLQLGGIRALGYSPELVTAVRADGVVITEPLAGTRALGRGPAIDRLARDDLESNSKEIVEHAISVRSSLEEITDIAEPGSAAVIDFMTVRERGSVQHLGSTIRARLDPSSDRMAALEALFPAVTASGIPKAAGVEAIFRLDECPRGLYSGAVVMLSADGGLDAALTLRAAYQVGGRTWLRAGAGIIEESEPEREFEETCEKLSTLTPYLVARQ
Starred values were filed as active, the others as inactive. This is a subset (hit frequency here may not be typical).

SMILES	MbtI inh
CC1CCN(S(=O)(=O)c2ccc3c4c(cccc24)C(=O)N3)CC1	-26
O/N=C/Cc1[nH]c2ccccc2c1-c1ccccc1	-15
O=C(O)c1ccc(-c2n[nH]c(=O)c3ccccc23)cc1	6
CCC1C(=O)N=C(SCC(=O)Nc2ncccn2)NC1=O (centres undefined)	-2
O=C(O)C1CCN(c2ncnc3c2sc2cccc(F)c23)CC1	-11
COc1ccccc1NC(=O)c1cnc(Nc2ccc(C)c(Cl)c2)c2ccccc12	109
O=C(O)CCC(=O)Nc1ccc(C(=O)OC2CCCCC2)cc1	0
O=C(COc1ccccc1)Nc1cccc(-c2nnc(-c3ccco3)o2)c1	-112
CCOC(=O)COc1nc(C)cc(C)n1	-2
O=C(O)CCS(=O)(=O)c1ccc2[nH]c(=O)c(=O)[nH]c2c1	95

Entries from the list above that have a COOH group (4):
SMILES	MbtI inh
O=C(O)c1ccc(-c2n[nH]c(=O)c3ccccc23)cc1	6
O=C(O)C1CCN(c2ncnc3c2sc2cccc(F)c23)CC1	-11
O=C(O)CCC(=O)Nc1ccc(C(=O)OC2CCCCC2)cc1	0
O=C(O)CCS(=O)(=O)c1ccc2[nH]c(=O)c(=O)[nH]c2c1	95

Later entries:
SMILES	MbtI inh
CCC(C)(NC(=O)Cc1ccccc1)C(=O)Nc1ccc2c(c1)OCCO2 (centres undefined)	-17
O=C(CSc1nnnn1-c1ccccc1)c1ccc2c(c1)OCO2	6
Cc1c(C(=O)N2CCCCC2)sc(N)c1C#N	-7
Cc1ccc(CC23CN4CCN(CC(C4)C2=O)C3)c(C)c1	-12
O=C(O)C1CCN(c2nc3ccccc3o2)CC1	-20
CC(Oc1cccc(Cl)c1)n1cncn1 (centres undefined)	-9
Oc1ccc(-c2ccccc2)cc1Br	-11
COc1ccccc1-c1cc(N)n[nH]1	-49
Cc1ccc(NC(=O)C(C)NC(=O)OCc2ccccc2)cc1C (centres undefined)	-16
CC(=O)OC(Cn1ccnc1)c1ccccc1 (centres undefined)	-3
COc1ccc2cnn(-c3nc4ccccc4s3)c(=O)c2c1OC	-9
COC(=O)C(C(=O)OC)c1cc(Br)c2noc3c2c1C(=O)c1ccccc1-3	35
COc1ccc(Br)cc1CN1CCC(N2CCN(CCO)CC2)CC1	-13
N#Cc1ccc(Sc2nc3ccccc3[nH]2)cc1C#N	-2
CCC(Sc1nc2ccccc2s1)C(=O)O (centres undefined)	-4
O=C(CSc1nc(-c2ccccc2)cc(=O)[nH]1)NC1CCCC1	9
CCCOC(=O)C(C)Oc1ccc2c3c(c(=O)oc2c1)CCC3 (centres undefined)	-55
COc1cc(NC(=O)c2ccc3c(c2)C(=O)N(c2cccc(C)c2C)C3=O)c(C(=O)O)cc1OC	-10
COc1ccc(CC(O)CN2CCCCC2)cc1 (centres undefined)	-4
COc1n[nH]c2nncnc12	5
O=C(CNC(=O)C1CCCCC1)NCc1ccco1	-13
CCC(C)(C(=O)NC1CCCC1)N(C(=O)c1ccccn1)c1ccccc1 (centres undefined)	-1
NC(=O)Cn1cnc(-c2ccc(F)cc2)c1	-13
CC(=O)Nc1ccc(S(=O)(=O)c2cc(OC(=O)c3ccco3)ccc2OC(=O)c2ccco2)cc1	-10
Cc1c(S(=O)(=O)NCc2ccc3c(c2)OCO3)c(=O)n(C)c(=O)n1C	-13
Cc1ccc(NC(=O)CCSc2nnc3scc(-c4ccccc4)n23)cc1	-16
CC(=O)Oc1ccc2occ(C(=O)c3cccs3)c2c1	-1
COc1cc(C(Nc2ccccn2)c2c(C)[nH]c3ccccc23)cc(OC)c1OC (centres undefined)	22
CS(=O)(=O)Nc1ccc2c(c1)OCCO2	-10
N#Cc1c(-c2ccc3c(c2)OCO3)csc1N	11
O=C(O)C1C2CC=CC2c2cc(Br)cc3c2N1CC1CC=CC31 (centres undefined)	-7
O=C(NCc1ccccc1)c1nccnc1CO	1
Cc1cccc(OCCn2c(=O)sc3ccccc32)c1	-12
COc1cc(C(=O)Nc2cccc(-c3nnc(-c4ccco4)o3)c2)ccc1OC(C)=O	-8
CCOc1ccc(CC(=O)C2C(=O)CCCC2=O)cc1OCC	-5
COc1cc(CNc2ccc3[nH]c(=O)[nH]c3c2)cc(Cl)c1OCC(=O)NC(C)(C)C	2
O=c1cc(CO)oc(CN2CCCC2)c1O	3
Oc1cccc2ccc(Nc3ccccn3)nc12	-5
COc1ccc(Cc2nc(C)cc(Cl)n2)cc1Cl	-11
CN(C)CCOC(=O)c1ccc2c(c1)OCCO2	-9
Oc1ccc(CNC2CCCCC2)cc1	-2
CC1(C)CC(C(=O)NCCC(c2ccccc2)c2ccco2)CCO1 (centres undefined)	6
Cc1ccc2nsnc2c1NC(=O)C(c1ccccc1)c1ccccc1	12
Cc1oc2c(CN3CCCC(C)C3)c(O)ccc2c(=O)c1-c1nc2ccccc2s1 (centres undefined)	-4
COc1ccc(-c2oc3ncn(CCCO)c(=N)c3c2-c2ccc(OC)cc2)cc1	-114
NCC(CC(=O)O)C1CCCCC1 (centres undefined)	-13
O=C(NC1CCCCC1)c1cccnc1C(=O)O	-13
CC(C)=CCC12CN3CCN(CC(C3)C1O)C2 (centres undefined)	-11
COc1ccc(CNC(=O)CCCn2ncc3ccc(C)cc32)cc1	-9
CN(C)Cc1cc(CCNC(=O)c2ccc(Cl)cc2)ccc1O	4

Next part, starting with the last 4 of the part before.
SMILES	MbtI inh
O=C(NC1CCCCC1)c1cccnc1C(=O)O	-13
CC(C)=CCC12CN3CCN(CC(C3)C1O)C2 (centres undefined)	-11
COc1ccc(CNC(=O)CCCn2ncc3ccc(C)cc32)cc1	-9
CN(C)Cc1cc(CCNC(=O)c2ccc(Cl)cc2)ccc1O	4
Cc1ccc(CC23CN4CCN(CC(C4)C2O)C3)c(C)c1 (centres undefined)	-9
O=c1oc2ccccc2cc1-c1csc(Nc2ccccc2)n1	3
CC1(C)CC2CC(C)(CN2C(=O)C23CCC(C)(C(=O)O2)C3(C)C)C1 (centres undefined)	-10
CSc1cccc2cccnc12	-12
COc1ncnc2c1[nH]c1ccccc12	65
CCOC(=O)c1cc2n(c1C)-c1ccccc1C2=O	-12
O=c1cccc(-c2ccccc2)[nH]1	-8
Nc1ccc(CN2CCCC2)cc1	-4
CC1=Nc2ccc(C)cc2N(Cc2ccccc2)C(=O)C1	-3
COC(=O)Cn1c2ccccc2c2nc(=O)cc(C)n21	-32

Single values from the list.
Reading for COc1cc(C(Nc2ccccn2)c2c(C)[nH]c3ccccc23)cc(OC)c1OC (centres undefined) under MbtI inh: 22
Reading for Cc1ccc(NC(=O)CCSc2nnc3scc(-c4ccccc4)n23)cc1 under MbtI inh: -16
Reading for COc1ccc(CNC(=O)CCCn2ncc3ccc(C)cc32)cc1 under MbtI inh: -9
Reading for O=C(O)CCS(=O)(=O)c1ccc2[nH]c(=O)c(=O)[nH]c2c1 under MbtI inh: 95

Carrying on.
SMILES	MbtI inh
CCN(CC)C(=O)c1scc2c1OCCO2	-9
O=C(O)c1cccc(-c2cc3ccccc3oc2=O)c1	-13
COc1ccccc1CNc1ncccc1N1C(=O)CCC1=O	-3
Clc1ccc(COc2cccc3cccnc23)cc1	8
CCOC(=O)CSc1n[nH]c2nc3sc4c(c3c(=O)n12)CC(C)(C)OC4	-1
Cc1ccc(CS(=O)(=O)CCC(=O)N2CCC3(CC2)OCCO3)cc1	-9
CCOC(=O)CSc1nnc(NCC(=O)OC)c(=O)[nH]1	8
COC(=O)c1ccc(Cn2nc(C)c(Br)c2C)o1	-4
COC(=O)c1cc(OC)c(OC)cc1-n1cnc2cc(OC)c(OC)cc2c1=O	0
O=C1C2CN3CCN(C2)CC1(c1ccccc1)C3	0

Gathered by group: those above with four or more nitrogen atoms (8)
SMILES	MbtI inh
CCC1C(=O)N=C(SCC(=O)Nc2ncccn2)NC1=O (centres undefined)	-2
O=C(CSc1nnnn1-c1ccccc1)c1ccc2c(c1)OCO2	6
N#Cc1ccc(Sc2nc3ccccc3[nH]2)cc1C#N	-2
COc1n[nH]c2nncnc12	5
Cc1ccc(NC(=O)CCSc2nnc3scc(-c4ccccc4)n23)cc1	-16
COc1cc(CNc2ccc3[nH]c(=O)[nH]c3c2)cc(Cl)c1OCC(=O)NC(C)(C)C	2
CCOC(=O)CSc1n[nH]c2nc3sc4c(c3c(=O)n12)CC(C)(C)OC4	-1
CCOC(=O)CSc1nnc(NCC(=O)OC)c(=O)[nH]1	8

(cont.)
SMILES	MbtI inh
O=C(NC(O)C(=O)c1ccccc1)c1cccs1 (centres undefined)	1
CCCC1CC(C)(c2csc(Cc3ccc(OCC)cc3)n2)OC1=O (centres undefined)	-6
CC(C)c1ccc(NC(=O)C(NC(=O)Cc2cccs2)c2ccccc2)cc1 (centres undefined)	2
CCOC(=O)C1C(=O)N(C(=O)c2ccc(OC)cc2)CC1c1ccccc1 (centres undefined)	2
CN1CCN(CC(O)c2ccccc2)CC1 (centres undefined)	-12
COc1ccc(-c2nnc(NC(=O)c3ccc(S(=O)(=O)N4CCC(C)CC4)cc3)o2)c(OC)c1	-5
N#CCSc1nsc2sc(C#N)c(N)c12	37
COc1ccccc1Nc1cc(=O)[nH]c(=O)[nH]1	4
Nc1nc(NCc2ccccc2)c(I)c(=O)[nH]1	-9
CN(CCc1ccccn1)Cc1ccc(Cl)cc1	-12
O=C1CCCC2=C1C(c1ccc(F)cc1)C1C(=O)c3ccccc3C1=N2 (centres undefined)	-3
O=C(Nc1ccccc1C(=O)NC(Cc1ccccc1)C(=O)O)c1ccccc1 (centres undefined)	5
COc1ccc(NC(=O)c2cccnc2Nc2cccc(F)c2)cc1	-19
COc1ccc(-n2nc(C(=O)NCC(=O)NC3CCCC(C)C3C)c3ccccc3c2=O)cc1 (centres undefined)	-5
CC1(C)C2CCC1(C)C(OC(=O)CSc1nc(N)cc(=O)[nH]1)C2 (centres undefined)	-8
CCOC(=O)N1CCC(N2CCCC(C(=O)N3CCCC3)C2)CC1 (centres undefined)	-11
CCOc1ccc(N(CC)S(=O)(=O)c2cccc3nsnc23)cc1	-1
CCN(CC)Cc1c(O)ccc2c(=O)c(-c3ccccc3)coc12	-26
O=c1[nH][nH]c(=O)c2cc(N3CCCC3)ccc12	-11
Nc1ccc(-c2cc(-c3cccc(N)c3)nc(-c3ccccc3)n2)cc1	-39
Cc1ccc(C)n1-c1ccccc1C(=O)O	-26
O=C1CCCC2=C1C(c1cccc(O)c1)C1=C(N2)c2ccccc2C1=O (centres undefined)	4
O=C1CCC(=O)N1c1ccc(-c2nc3ccccc3c(=O)o2)cc1	-3
Cc1[nH]c(=O)[nH]c(=O)c1N(C)C	-4
COc1cccc(CNC(=O)c2[nH]c(C)c(C(=O)NC3CCCCC3)c2C)c1	2
Nc1cccc(-c2nnc(-c3cccc(N)c3)o2)c1	-67
O=C(O)Cn1cccc1C(=O)c1ccccc1	5
CCC(C)(C(=O)NC1CCCC1)N(Cc1cccs1)C(C)=O (centres undefined)	-12
CCCCC(C(=O)Nc1ccc(C)cc1C)N1C(=O)c2ccccc2C1=O (centres undefined)	-15
O=C1CCCN1c1ccc(S(=O)(=O)Nc2ccc(I)cn2)cc1	-14
Cc1ccc(-c2nc3ccccc3s2)cc1NC(=O)c1ccc2c(c1)OCCO2	-1
O=C(OCCN1CCOCC1)C1c2ccccc2Oc2ccccc21	2
CCCOc1ccc(NC(=O)CCCN2C(=O)c3ccccc3C2=O)cc1	-8
CC1CCN(CC(C)OC(=O)C2COc3ccccc3O2)CC1 (centres undefined)	-6
CC(C)CNC(=O)C(C)c1ccc(CC(C)C)cc1 (centres undefined)	-4
O=C(O)C1CSC(c2ccccc2O)=N1 (centres undefined)	-25
CC1(C)Cc2cccc(OCC(=O)NCCCN3CCOCC3)c2O1	46
CCOc1ccccc1CNC(=O)Cc1cccs1	0
Cc1cc(NC(=O)c2cccs2)cc(C)c1OCC(=O)N1CCOCC1	9
O=C1CCCCC1Cc1c(O)ccc2ccccc12 (centres undefined)	-10
COc1ccccc1OCCn1c(=O)sc2ccccc21	-19
CSC1=NC2(CCCCC2)CC12C=CC(=O)C=C2	3
CCOC(=O)c1cn2c3c(c(F)c(F)c(F)c3c1=O)SC(N1CCCC1)=N2	-14
CCCn1c(-c2ccccc2)nc2c(=O)n(C)c(=O)[nH]c21	-37
COc1cc(C(O)c2nccn2C)cc(OC)c1OC (centres undefined)	-6
Cc1cc(C)nc(Nc2ncc(O)n2-c2ccc(C)c(C)c2)n1	-9
CC1(C)CC(C(CC#N)c2ccc(F)cc2)CCO1 (centres undefined)	12
Cc1ccc(S(=O)(=O)NC2c3cccc4cccc(c34)C2Sc2ncccn2)cc1 (centres undefined)	-6
O=C(c1cccs1)C(O)c1cccs1 (centres undefined)	7
COc1ccc(CCC(=O)C2(O)CCCCC2)cc1	-13

Continuation.
SMILES	MbtI inh
CCOC(C(=O)c1ccccc1)c1ccccc1 (centres undefined)	-8
COc1ccc2cc(C#N)c(NC(C)C)nc2c1	-6
CCN(CC)c1nc2cc(OC)ccc2cc1C#N	-23
CCOC(=O)C1CCC(CNCc2ccccc2)CC1 (centres undefined)	-11
Cc1sc2ncn(CC(=O)NC3CCCC(C)C3C)c(=O)c2c1S(=O)(=O)N1CCC(C)CC1 (centres undefined)	9
O=C(CCS(=O)(=O)c1cccc2nonc12)N1CCCCC1	-1
CCN(CC)Cc1csc(C(N)=O)c1	-6
COc1ccccc1-c1n[nH]c(=S)o1	8
Cc1cc(C)cc(OC(=O)CN2C(=O)c3ccccc3C2=O)c1	-13
O=c1[nH]n(-c2ncnc3sc4c(c23)CCCC4)c(=O)c2ccccc12	-4
O=C1OC(c2ccc(F)cc2)c2ccccc21 (centres undefined)	-6
CCC(Oc1ccccc1)C(=O)NCc1ccc2c(c1)OCO2 (centres undefined)	-12
Cc1nc2cc(NS(=O)(=O)c3ccccc3F)ccc2s1	-8
Cc1nn(Cc2ccccc2)c(C)c1CCC(=O)O	-8
Cc1ccc(S(=O)(=O)CCC(=O)c2ccc(O)cc2O)cc1	39
CC(C(=O)O)C(C(=O)O)C(C)c1ccccc1 (centres undefined)	-18
